High-throughput results deposited in PubChem BioAssay by ICCB-Longwood Screening Facility, Harvard Medical School.
Ba CapD inh: Bacillus anthracis CapD inhibitors, primary screen, biochemical, fluorescence intensity; 140,000 compounds, 0.23% hits; AID 492967, 2010; purified CapD enzyme, fluorescence intensity read-out; hits give low values; some hits fall short of the stated cut; CapD gamma-glutamyltranspeptidase (Bacillus anthracis Ames Ancestor); z-score (test concentration not listed);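 active = z-score under -4 in either of two replicates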;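 note: stock transfer was 100 nL into about 40 µL; score is relative to mean and spread of the plate; one replicate is shown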
AID504770: growth inhibition of E. coli YBA685, primary screen, V. cholerae RctB inhibitors; E. coli YBA685 rctB-dependent plasmid, OD600 growth, 3 h; hits give low values; z-score (concentration not given with the values); 130,000 compounds, 0.27% hits;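 active = z-score under -2 on both plates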;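 note: wells of about 30 µL received 100 nL stock; score is relative to mean and SD of the test wells; the first replicate is given; strong numbers were not always called active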
* = called active by the depositor; / = no result given; & = joins results of further samples.

Results follow in this order: Ba CapD inh, AID504770
- Cc1ccc(S(=O)(=O)N2CCCC2C(=O)NCc2ccccc2Cl)cc1 (centres undefined)
    -0.395, -0.35
- COc1nc(N)nc(C23CC4CC(CC(C4)C2)C3)n1
    0.175, 0.3
- CC1CC(C)CN(S(=O)(=O)c2ccc(CN3C(=O)c4cccnc4C3=O)cc2)C1 (centres undefined)
    -0.775, -0.35
- O=C(CSc1nc2ccsc2c(=O)n1C1CCCCC1)Nc1nccs1
    0.295, /
- COc1ccc(C(=O)NCCc2ccc(O)cc2)c(OC)n1
    73.5, 0.1
- Cc1cc(Cl)cc(C)c1OCCn1ccnc1
    -0.815, 0.85
- CN1CCN(NS(=O)(=O)c2ccc(Br)s2)CC1
    /, -0.1
- CC(C)Cn1cc(I)c(=O)n(CC(C)C)c1=O
    -0.77, -0.05
- O=c1nc(SCCN2CCCCC2)nc2ccccn12
    /, -0.1
- Cc1c(N(C)C(=S)SCC(=O)O)c(=O)n(-c2ccccc2)n1C
    0.345, -0.5
- CC(=O)C1=NN(c2ccc(Cl)cc2)C2(S1)c1ccccc1C(c1ccc(C(C)C)cc1)=NN2c1ccccc1 (centres undefined)
    -0.565, /
- CS(=O)(=O)Cc1ccc(Oc2ccc(NS(C)(=O)=O)cc2)cc1
    -0.355, 1.7
- Cc1cc(=O)[nH]c(-c2ccccn2)n1
    0.47&-0.93, /
- Cc1c(C)c(C)c(CSC2=NCCS2)c(C)c1C
    -0.665, 0.2
- O=c1ccc(=O)n(-c2ccccc2)[nH]1
    -0.055, 1
- Cc1cccn2c(=O)c(/C=C3\SC(=S)N(CCCCCC(=O)O)C3=O)c(N3CCCC3)nc12
    -0.185, /
- CCSC1=N/C(=C\c2ccsc2)C(=O)S1
    -0.825, -0.75
- CC(Oc1ccccc1)C(=O)Nc1ccc(-n2nncc2-c2ccccc2)cc1 (centres undefined)
    0.215, -0.15
- O=C(Nn1cnnc1)c1ccccc1-c1ccccc1
    -0.975, 1.6
- O=C(OCc1cc2cccc3c2n(c1=O)CCC3)C(c1ccccc1)c1ccccc1
    5.07, /
- COc1ccc2[nH]cc(CCNS(C)(=O)=O)c2c1
    0.44, -0.55
- CC(C)(C)NS(=O)(=O)Nc1ccccc1
    0.105, 0.85
- COc1cccc(C2=NN3C(C2)c2cc(Cl)ccc2OC3c2cc(OC)c(OC)c(OC)c2)c1 (centres undefined)
    -0.615, /
- CCCC(=O)Nc1nc2ccc(S(C)(=O)=O)cc2s1
    /, -0.6
- Cc1nn(C)c(=O)c2noc(/C=C/c3ccc(Cl)c(Cl)c3)c12
    0.365, /
- CCN(CC)c1c(CN2CCCC2)c(=O)oc2ccccc12
    -0.725, -0.2
- O=C(CSc1nc2ccc(NC(=O)c3ccccc3F)cc2s1)Nc1ccc([N+](=O)[O-])cc1
    1.31, /
- Nc1ccccc1NCCNc1ncc(C(F)(F)F)cc1Cl
    -0.44, /
- O=C(O)COc1ccc(/C=C2\C(=O)NC(=S)N(c3ccc(F)cc3)C2=O)cc1Br
    -1.59, /
- CCCCN(C)S(=O)(=O)c1cc(Br)cc2c1N(C(=O)CC)CC2
    0.42, 0.25

An excerpt from above in order of SMILES length, lowest first.
Results follow in this order: Ba CapD inh, AID504770
- O=C(Nn1cnnc1)c1ccccc1-c1ccccc1
    -0.975, 1.6
- CCCC(=O)Nc1nc2ccc(S(C)(=O)=O)cc2s1
    /, -0.6
- O=C(O)COc1ccc(/C=C2\C(=O)NC(=S)N(c3ccc(F)cc3)C2=O)cc1Br
    -1.59, /
- Cc1cccn2c(=O)c(/C=C3\SC(=S)N(CCCCCC(=O)O)C3=O)c(N3CCCC3)nc12
    -0.185, /

Going on with the list.
Results follow in this order: Ba CapD inh, AID504770
- Cc1[nH]n(-c2ccccc2)c(=O)c1C(c1ccc(C#N)cc1)c1c(C)[nH]n(-c2ccccc2)c1=O
    -0.39, /
- CCCCOc1ccc(OCCCC)c2c1nc(-c1ccccc1NC)c(=O)n2C
    0.13, /
- COc1cccc(CNn2cn[nH]c2=S)c1OCc1ccccc1
    -0.065, -0.5
- COc1ccc(Cl)c(C(=O)OCC(=O)Nc2ccc(F)cc2)c1
    1.6, -0.65
- Cc1cc(I)ccc1NS(=O)(=O)c1cccs1
    -1.3, -0.55
- O=C(COC(=O)c1ccc2c(c1)OCCO2)c1ccccc1
    /, -0.55
- Cc1ccc(NC2OC(C(O)CO)C(O)C2O)cc1C (centres undefined)
    0.785, 2.45
- Cc1cccc(C)c1OCc1nnc2c3cnn(-c4ccccc4)c3ncn12
    0.44, -0.5
- CCOc1cc(C2C(C(=O)OCCOC)=C(C)NC3=C2C(=O)CC(c2ccccc2)C3)cc(Br)c1O (centres undefined)
    4.46, /
- CCCCC(=O)/C=C/n1c(=S)oc2ccccc21
    -1.19, -0.25
- Cn1nc(Oc2ccc(-c3ccccc3)cc2)c(=O)n(C)c1=O
    /, 2.15
- COc1ccccc1S(=O)(=O)CC(O)COc1ccccc1Cl (centres undefined)
    0.23, /
- CNc1ncnc(Oc2cccc(C(F)(F)F)c2)c1[N+](=O)[O-]
    -0.455, /
- COc1ccc(C(=O)NCc2cn3ccsc3n2)cc1OC
    -1.5, -0.85
- CC1=Nc2ccc(C)cc2/C1=C\c1c(N)n2nc(S(=O)(=O)CC(C)C)sc2nc1=O
    0.185, -0.4
- COc1ccccc1CNC(=O)Cn1ncc2c3ccccc3n(Cc3ccc(F)cc3)c2c1=O
    4.62, 0.05
- O=C(CSc1nc2[nH]ncc2c(=O)[nH]1)N1CCCc2ccccc21
    /, -0.3
- Cc1cc2ccccn2c1C(=O)c1ccc(S(=O)(=O)N(C)C)cc1
    -2.04, -0.2
- COc1ccc(CNC(=O)C2=Cc3ccccc3OC2)cc1
    /, 0.25
- O=C(C1CCN(c2nc3cccnc3s2)CC1)N1CCCCC1
    -1.31, 0.45
- CCCS(=O)(=O)c1c(S(=O)(=O)CCC)c2cc(-c3ccncc3)ccn2c1C(=O)N/N=C/c1ccccc1
    -0.29, /
- CCOC(=O)C1=C(NC2CCN(Cc3ccccc3)CC2)C(=O)N(C(C)(C)C)C1
    -1.04, 2.15
- CCOc1ccc(N=C2SC(C(=O)Nc3ccc(F)cc3)CC(=O)N2Cc2ccc3c(c2)OCO3)cc1 (centres undefined)
    -0.98, /
- O=c1c([N+](=O)[O-])c[nH]c2ccccc12
    -0.235, /
- COc1ccc(C2=[N+]([O-])C(C)(C(=O)c3ccccc3)N(O)C2OC)cc1 (centres undefined)
    /, -0.75
- O=C(OCn1nnc2ccccc2c1=O)C12CC3CC(CC(O)(C3)C1)C2
    /, 0.05
- COc1ccc2ccccc2c1CN1CCCC(COC(=O)N2CCN(Cc3ccccc3OCc3ccccc3)CC2)C1 (centres undefined)
    1.35, /
- NC#Cc1cnn(-c2ccccc2)n1
    0.565, 0.7
- CCCc1ccc(-c2ccc(-c3nocc3-c3ccc(Cl)cc3)cc2)c(F)c1
    0.025, /
- CSc1nc2ccccc2n1C(=O)c1cccs1
    1.07, 0.05

An excerpt of these results, with each value named.
SMILES: O=C(CSc1nc2[nH]ncc2c(=O)[nH]1)N1CCCc2ccccc21
- Ba CapD inh = /
- AID504770 = -0.3
SMILES: Cc1cc2ccccn2c1C(=O)c1ccc(S(=O)(=O)N(C)C)cc1
- Ba CapD inh = -2.04
- AID504770 = -0.2

The list continues:
SMILES,Ba CapD inh,AID504770
O=C(Nc1ccccc1C(=O)NCCc1ccccn1)c1ccc(Cl)c(Cl)c1,-0.365,0.1
CCN(c1ccccc1)S(=O)(=O)c1ccc2[nH]cc(C(=O)NCCc3ccc(OC)c(OC)c3)c(=O)c2c1,-0.17,/
Cc1cc(C(C#N)c2nc3ccccc3o2)nc(N2CCOCC2)n1 (centres undefined),/,-0.05
O=C(NC1CCCCC1)c1ccc2c(=O)n(-c3ccccc3)c(=O)[nH]c2c1,2.52,0.45
Cc1ccc(CNC(=O)C(C)n2ncn3cccc3c2=O)cc1 (centres undefined),0.235,0
Cn1cc(C(=O)c2ccc(Cl)cc2)cc1/C=C(\C#N)S(=O)(=O)c1cccs1,-0.34,-1.05
CCN(CC)c1ccc(-c2nc3cc(NC(=O)c4ccc(OC)c(OC)c4)ccc3o2)cc1,87.3,/
Cc1ccc(C(C)C)cc1Oc1ccc(Cl)cc1NC(=O)c1cc(Cl)cc(Br)c1O,10.2,/
CC(C)OCCCNC(=O)c1ccc2c(=O)n(Cc3ccco3)c(SCC(=O)Nc3nccs3)nc2c1,0.18,/
CCOC(=O)Nc1ccc2c(CN(C)Cc3ccc(F)cc3)cc(=O)oc2c1,/,-0.35
CNC(=O)c1c(C)nn(-c2ccc(F)c(Cl)c2)c1-c1cc(C)on1,-0.075,-0.1
O=S1(=O)CCC(NCC2CCCO2)C1 (centres undefined),/,0.5
Cc1ncc(-c2ccc3ccccc3c2)s1,0.805,-0.75
COc1ccc(-c2cc(-c3ccccc3)nc3sc(C(=O)NC4CC4)c(N)c23)cc1,-0.595,/
O=C(c1ccccc1)N1CCCOC1c1ccccc1 (centres undefined),-0.105,-0.65
Cc1cnc(C)c(N(C)C)n1,/,1.15
CCCN(CCC)C(=O)c1sc2nc(-c3ccccc3)cn2c1C,0.45,-1.4
CCOC(=O)c1c(C)n(-c2ccccc2)c2c1cc(OC(=O)c1cccc(F)c1)c1ccccc12,0.01,/
FC(F)(F)c1cnc(/N=C/N2CCOCC2)c(Cl)c1,2.68,/
CCN(CC)S(=O)(=O)c1cccc(C(=O)Nc2cccc(NC(=O)c3cccc(S(=O)(=O)N(CC)CC)c3)n2)c1,-0.245,/
CC(C)C(NC(=O)Cc1ccccc1)C(C)C,-0.105,1.25
Cc1ccc(-n2c(C)nc3sc4c(c3c2=O)CCC4)cc1,-1.75,-0.35
CC(NC(=O)CCn1[nH]c(=O)ccc1=O)C12CC3CC(CC(C3)C1)C2 (centres undefined),/,-0.05
Cc1ccc(C(=O)Nc2ccc(-c3cn4c(n3)SCC4)cc2)cc1C,2.83,0.95
COc1cc(O)c(/C=N/NC(=O)Cc2ccc(OC)c(OC)c2)c(OC)c1,-0.63,/
Cc1ccc(-c2nnn(C3CCOC3=O)n2)cc1 (centres undefined),/,2
Clc1ccc2c(c1)CN(C1CCCCC1)CO2,/,-0.25
O=C1CCCC(O)=C1C(C1=C(O)CCCC1=O)c1ccccc1,-0.455,-0.5
COc1ccc(Cl)cc1NC(=O)CC(NCCc1ccccc1)C(=O)O (centres undefined),-0.7,0.85
O=C(O)CC(NC(=O)Cc1ccccc1)c1ccccc1 (centres undefined),/,0
O=C(COC(=O)C1(c2ccccc2)CC1)N1CCN(c2ccc(F)cc2)CC1,/,0.1
COc1ccccc1CN(C(=O)c1ccco1)c1ccc2[nH]c(C(C)(C)C)cc2c1,-0.49,/
Cc1ccc(C(=O)CSc2nnc(-c3cccc(C)c3)o2)cc1,/,0.85
COC(=O)C(C)Nc1n[nH]c(=S)[nH]c1=O (centres undefined),/,-0.15
CCOC(=O)c1csc(-c2cccs2)n1,19,-0.5
O=C(CC1Oc2ccccc2NC1=O)NCc1cccnc1 (centres undefined),-0.275,0.6
O=S(=O)(c1ccc2c3c(cccc13)CC2)N1CCSC1,/,0.3
CN(C)c1ccc(N2C(=O)CC(NNc3ccccc3)C2=O)cc1 (centres undefined),/,-0.1
Cc1cc(C)n(-c2ccc(C(=O)OCC(=O)Nc3ccccc3)cc2)n1,/,0.95
O=C(Nc1cc(Cl)ccc1Oc1ccc2ccccc2c1Cl)c1cc(Cl)cc(Cl)c1O,2.24,/
CC1(C)C(=O)NC(=O)N1C(=O)c1ccccc1,-0.125,-1.75
CN(Cc1nc(-c2ccccc2)no1)C(=O)CCN1C(=O)c2ccccc2C1=O,-0.025,-0.35
CS(=O)(=O)Cc1cccc(C(=O)NCc2ccco2)c1,/,-0.6
Cc1ccc(O)c(C(=O)c2cnc3nc4ccccc4n3c2)c1,/,0.25
CC(C)CSc1nc2sccc2c(=O)n1-c1ccccc1,/,1.85
CC(=O)N(CCS(=O)(=O)c1ccc(Cl)cc1)Cc1cccs1,-0.27,0
Cc1ccc(S(=O)(=O)N2CCOCC2)cc1C(=O)OCC(=O)N(C)c1ccccc1,/,-0.1
Cc1nc(-c2nc(-c3c(C(=O)N/N=C/c4ccc(Cl)cc4)noc3C)cs2)cs1,0.32,-0.3
Cc1ccc(-c2nc3s/c(=C\c4ccc(OCc5ccccc5)cc4)c(=O)n3n2)cc1,-0.23,/
COc1cc(CNn2c(-c3cc(OC)c(OC)c(OC)c3)nc3ccccc3c2=O)cc(OC)c1OC,-0.32,/

Next part:
SMILES,Ba CapD inh,AID504770
Nc1nc2ccc(CC(=O)O)cc2s1,-0.215,0.15
CCOc1ccc(S(=O)(=O)NCC2CCCO2)c2ccccc12 (centres undefined),1.79,0.4
FC(F)(F)Oc1ccc(-n2cccc2)cc1,-0.465,-0.15
CN(CC(=O)C(C#N)c1ccccc1)Cc1ccccc1 (centres undefined),-1.02,1.6
NC(=O)/C=C/C(=O)Nc1ccc2c(c1)OCO2,/,-1.3
Cc1nc(-c2ccccc2OC(F)(F)F)[nH]c(=O)c1Cl,10.7,-0.85
O=C(c1ccccc1)N(CCN1CCOCC1)C1(C(=O)Nc2ccccc2)CCCCC1,-0.455,1.3
